KCNQ2 pot: potentiators of rat KCNQ2 potassium channel. B-score at 10 µM. AID 2239, 2010. 310,000 tested, 0.54% active. CHO-K1 KCNQ2, FluxOR thallium flux fluorescence; active compounds read high. Potassium voltage-gated channel subfamily KQT member 2 (Rattus norvegicus), O88943;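 active means fluorescence ratio B-score at least 3 SD of library B-scores, with initial fluorescence B-score within 3 SD, cut at about 5.3 in these data; same plate scores as AID 2156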;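 further: B-score of peak minus minimum over baseline fluorescence ratio after K+ and Tl+ stimulus; positive B-score means potentiation of KCNQ2 with more thallium influx and brighter signal; only the inactives scoring about 0 or higher are listed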
Target sequence (O88943 whole entry, looked up): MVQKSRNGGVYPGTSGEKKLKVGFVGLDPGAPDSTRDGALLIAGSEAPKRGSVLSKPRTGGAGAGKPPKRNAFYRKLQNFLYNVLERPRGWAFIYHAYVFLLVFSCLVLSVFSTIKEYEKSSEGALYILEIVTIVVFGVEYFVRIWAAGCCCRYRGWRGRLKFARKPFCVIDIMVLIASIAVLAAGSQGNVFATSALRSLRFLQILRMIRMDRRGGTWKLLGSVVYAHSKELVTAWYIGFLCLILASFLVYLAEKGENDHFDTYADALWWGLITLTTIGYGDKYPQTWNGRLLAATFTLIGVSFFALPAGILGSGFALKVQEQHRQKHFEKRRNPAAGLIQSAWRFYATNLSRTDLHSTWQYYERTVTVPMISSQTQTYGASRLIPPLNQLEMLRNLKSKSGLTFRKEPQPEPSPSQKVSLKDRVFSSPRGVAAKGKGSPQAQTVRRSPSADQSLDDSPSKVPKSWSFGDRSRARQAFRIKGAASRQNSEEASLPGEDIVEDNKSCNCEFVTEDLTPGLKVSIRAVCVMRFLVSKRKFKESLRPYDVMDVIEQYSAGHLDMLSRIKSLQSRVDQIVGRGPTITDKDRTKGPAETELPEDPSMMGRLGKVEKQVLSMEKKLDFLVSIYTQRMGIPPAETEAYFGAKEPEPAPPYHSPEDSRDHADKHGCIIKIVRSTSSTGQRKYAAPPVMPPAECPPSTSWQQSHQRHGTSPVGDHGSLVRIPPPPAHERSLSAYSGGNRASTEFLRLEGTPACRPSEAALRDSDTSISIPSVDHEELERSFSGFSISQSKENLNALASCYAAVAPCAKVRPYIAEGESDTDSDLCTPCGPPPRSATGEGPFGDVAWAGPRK
KCNQ2 pot baseline: also measured in KCNQ2 pot; calls as there; B-score; compound at 10 µM; measured here: initial fluorescence intensity artifact check;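 brightness before thallium and not channel activity; 0 = typical well and far values either way flag optical interference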
* = called active by the depositor. Not all compounds are listed; rates above refer to the full screens.

SMILES | KCNQ2 pot | KCNQ2 pot baseline
O=C(CNC(=O)c1ccccc1)NCC(O)c1ccc([N+](=O)[O-])cc1 (stereo not given) | 1.5 | -0.02
C=CCn1cc(/C=N/NC(=O)COc2cccc3cccnc23)c2ccccc21 | 0.07 | 1.1
COc1cccc(OCc2cc(C(=O)N(C)Cc3nccn3C)no2)c1 | 1 | -0.78
O=C(c1ccco1)N1CCN(C(=O)C2CCN(S(=O)(=O)c3cnc[nH]3)CC2)CC1 | 1.8 | 0.41
O=C(NCc1ccc(Cl)cc1)NCc1ccc(Cl)cc1 | 0.18 | 0.08
O=C(Cn1cc(C(=O)C2CC2)c2ccccc21)NCC1CCCO1 (stereo not given) | 2 | -0.7
CCOc1ccccc1C(=O)NCCCN1CCN(CCCNC(=O)c2ccccc2OCC)CC1 | 0.01 | -0.45
CCOC(CNC(=O)CCc1c(C)nc2nc(C)nn2c1C)OCC | 1.5 | -1.6
CCc1ccc(OCCOCC(O)CNC2CCCC2)cc1 (stereo not given) | 0.28 | -1.8
CCN(CC)C(=O)CS(=O)CC(=O)Nc1cc(OCCOC)c(Cl)cc1Cl (stereo not given) | 0.69 | -0.27
Cc1ccc(Cl)cc1N1CCN(C(=O)CCC(=O)O)CC1 | 0.01 | -0.1
NC(=O)c1ccc(NC(=O)COc2cccc3ccccc23)cc1 | 0.03 | 0.41
COCCNC(=S)N1CCOCC1 | 0.9 | -0.68
CCc1ccc(C2N3CC4([N+](=O)[O-])CN2CC([N+](=O)[O-])(C3)C4(C)C)cc1 (stereo not given) | 0.43 | -0.13
O=C(CNc1cccc(S(=O)(=O)N2CCCC2)c1)Nc1ccc(C(F)(F)F)cc1 | 2 | -0.3
CCN1CCc2c(OCC(=O)N3CCC(C)CC3)cccc2C1=O | 2.2 | -1
CC(=O)Nc1ccc(OC(F)(F)C(F)F)c(NC(C)=O)c1 | 0.31 | 0.67
Cc1onc(-c2ccccc2)c1C(=O)NCCN1CCOCC1 | 0.05 | 0
O=C(c1ccco1)N1N=C(c2cccs2)CC1c1ccccc1O (stereo not given) | 0.87 | -0.07
CCOc1ccccc1CNc1nnnn1C | 0.52 | -1.5
O=C(O)c1cc(-c2ccccc2)n(-c2ccc(F)cc2)n1 | 1.1 | -2
O=C(CSc1ncccn1)NCc1cccc(Cl)c1 | 1.8 | -0.43
CC1CCC(NC(=O)CCN2C(=O)C3C4C=CC(C4)C3C2=O)CC1 (stereo not given) | 1.1 | 0.04
CCOC(=O)C1CCCN(CC(=O)NC2CC2)C1 (stereo not given) | 0.25 | -0.12
CCOCc1nnc(NC(=O)c2cc(OC)cc(OC)c2)s1 | 0.09 | 2

Continuation:
SMILES | KCNQ2 pot | KCNQ2 pot baseline
O=C(COc1ccc(S(=O)(=O)N2CCOCC2)cc1Cl)NCC1CCCO1 (stereo not given) | 1.5 | -1.2
OCCN1CCN(CC(O)COC(c2ccc(F)cc2)c2ccc(F)cc2)CC1 (stereo not given) | 0.07 | -1
CNS(=O)(=O)c1cccc(C(=O)OCC(=O)NCCCc2ccccc2)c1 | 2.3 | 0.05
CCOC(=O)c1c(N)sc(C(=O)OC)c1C | 0.93 | 0.82
Cc1cc(C)nc(-n2nc(C)c(C3(O)C(=O)Nc4ccccc43)c2N)n1 (stereo not given) | 1.6 | -1.2
Cc1ccccc1C(=O)NCCn1cc(SCC(=O)NCC2CCCO2)c2ccccc21 (stereo not given) | 0.23 | -0.21
N#Cc1c(N)nc2c(c1-c1cccs1)CCCC2 | 0.39 | 0.56
CC(C)c1ccc(CNCc2ccccc2)cc1 | 0.17 | -1.5
CCc1ccccc1Nc1ncnc2ccccc12 | 0.81 | -0.11
CCCn1nnnc1SCC(=O)N1CCOCC1 | 2.1 | -0.82
COc1ccccc1N(CC(=O)NCCSCc1ccccc1)S(C)(=O)=O | 1.6 | -0.76
COc1ccc(/C=N/NC(=O)c2ccc(Cl)cc2)cc1Cn1cc(Cl)cn1 | 0.19 | -1.9
CCn1cc(C(=O)O)c(=O)c2cnc(N3CCN(C(=S)NC(=O)c4ccc(Cl)cc4)CC3)nc21 | 0.1 | -0.88
COc1ccc(-c2noc(CCC(=O)NCc3ccco3)n2)cc1 | 0.44 | 0.38
O=C(COC(=O)c1ccco1)NC1CCCCC1 | 0.02 | 0.03
COc1cc(CNC2CCCC2)c(Br)cc1OC1CCCC1 | 0.72 | -1.5
Cc1cc(C)n2nc(C(=O)OCCOc3ccc(Br)cc3)nc2n1 | 0.88 | -0.8
CC1(C)CC(=O)C(N=Nc2ccc(C(F)(F)F)cc2[N+](=O)[O-])=C(O)C1 | 2.3 | 0
Cc1cnn(-c2nc(-c3cccs3)cc(C(F)(F)F)n2)c1 | 0.54 | -0.29
O=C(CCS(=O)(=O)c1ccccc1)Nc1nc(-c2ccc(F)cc2)cs1 | 0.87 | -0.02
COc1cc(Nc2ccc(C)cc2)c([N+](=O)[O-])nc1[N+](=O)[O-] | 0.09 | 1.8
CCC(=O)N(Cc1cc2cc(OC)ccc2[nH]c1=O)c1ccc(C)cc1C | 0.4 | 0.44
CCOC(=O)c1sc(NC(C)=O)cc1C | 1.5 | 2.1
COc1cc2ccccc2cc1C(=O)O | 1.2 | 1.6
Cc1cc(C)c2nc(C(F)(F)F)c(C#N)c(N)c2c1 | 0.05 | -0.04

Next section.
SMILES | KCNQ2 pot | KCNQ2 pot baseline
Cc1ccc(-c2noc(CCC(=O)NC3CCN(Cc4ccccc4)CC3)n2)cc1 | 3 | -1.5
CCSc1nnc(NC(=O)CSc2nnc(CNC(=O)c3ccccc3F)o2)s1 | 0.41 | -0.03
COc1ccc(-n2c(C)nc3cc(C(=O)NCc4ccc5c(c4)OCO5)ccc32)cc1 | 0.94 | -0.37
CCN(CC)C(=O)CSc1nnc(-c2ccccc2)o1 | 1.9 | -0.31
COc1ccccc1NC(=O)CCc1nnc2ccc(N3CCN(C)CC3)nn12 | 2.1 | -0.27
CCOC(=O)N1CCN(C(=O)COc2cccc3c2CCN(Cc2ccccc2F)C3=O)CC1 | 1.2 | -1.2
CCc1ccc(NC(=O)CCCN2C(=O)C3CC=CCC3C2=O)cc1 (stereo not given) | 0.52 | -2.4
Cc1ccccc1Nc1nc(N)nc(CSc2n[nH]c(N)n2)n1 | 0.18 | -0.72
COc1ccc(/C=N/n2cnnc2)cc1Cn1nc(C)c([N+](=O)[O-])c1C | 2.1 | -0.68
COCc1cc(=O)[nH]c(Nc2nc(C)c3ccccc3n2)n1 | 0.69 | -0.2
CCCCNC(=O)c1cc2cc(OC)ccc2[nH]1 | 0.67 | -1.3
COc1ccc(NC(=O)Nc2ccc3nc(C)c(C)nc3c2)cc1 | 0.63 | -0.37
Cc1ccc(Nc2nc(C(=O)N3CCC(C(=O)NCc4ccccc4)CC3)cs2)cc1 | 1.1 | 0.52
CC(C)CCNC(=O)C1CCN(C(=O)N(C)C)CC1 | 0.5 | -0.43
Cn1nnnc1SCC(=O)C(C)(C)C | 0.03 | -1.2
C/C(=N\OCc1nc2ccccc2c(=O)n1/N=C/c1cc([N+](=O)[O-])ccc1O)c1ccccc1 | 2.1 | -0.97
Cc1ccc(NC2=C(Cl)C(=O)OC2OC(=O)c2ccco2)cc1 (stereo not given) | 0.28 | 0.62
C/C(=N\NS(=O)(=O)c1ccccc1)c1ccc2c(c1)OCCO2 | 0.28 | 1.1
O=C(Cc1ccccc1)NC(NC(=O)Cc1ccccc1)c1cccc([N+](=O)[O-])c1 | 0.68 | 1.3
CCN(CC(=O)NCc1ccc(Cl)cc1)C(=O)CSc1ccccc1F | 0.97 | -1.8
COc1ccccc1NC(=O)CC(=O)Nc1ccccc1OC | 1.3 | 0.2
CCC1(c2ccc(F)cc2)NC(=O)N(CC(=O)Nc2cccc(S(=O)(=O)N3CCCCC3)c2)C1=O (stereo not given) | 0.05 | -1.4
Cc1nc2nc[nH]n2c(=O)c1CCOC(=O)c1ccccc1F | 0.11 | 0.19
COc1cc(OC)cc(C(=O)Nc2ccc3c(c2)COC3=O)c1 | 0.84 | 0.54
O=C(OCCN1CCCCC1)c1cccc(F)c1 | 0.27 | 0.13

(list continues)
SMILES | KCNQ2 pot | KCNQ2 pot baseline
Cc1c(C(=O)NCC2CCCO2)oc2ccc(S(=O)(=O)N3CCCCC3)cc12 (stereo not given) | 2.5 | -0.16
Fc1cccc2sc(Nc3nc4c(F)cccc4s3)nc12 | 1.3 | 1.1
COc1ccc(NC(=O)C2CCCN2C(=O)NCc2ccccc2)cc1 (stereo not given) | 0.45 | -1.9
NC(=O)C1CCN(Cc2nc3c(Br)cc(Br)cc3c(=O)[nH]2)CC1 | 1.6 | -1.4
Cc1ccccc1CS(=O)(=O)Cc1ccc(C(=O)NC2CCCC2)o1 | 1.2 | 0.03
CC(C)(C)c1ccc(C(=O)C2CCCN(C(=O)CCn3cncn3)C2)cc1 (stereo not given) | 0.85 | -0.04
CCc1ccc(OCC(=O)OC(C)C(=O)NC2CC2)cc1 (stereo not given) | 1.2 | 0.14
Cc1c(C(=O)N2CCCC2)sc(NC(=O)c2ccc(Cl)cc2)c1C#N | 0.63 | -1.9
C=C(C)c1sc(-c2ccc(Cl)cc2)nc1C | 0.67 | -0.01
COc1cc(/C=C/C(=O)N2CCN(c3n[nH]c(=O)[nH]c3=O)CC2)cc(OC)c1OC | 0.62 | 0.41
Cn1c(=O)n(C)c2cc(S(=O)(=O)Nc3ccccc3)ccc21 | 0.64 | 0.36
CCN(CC)C(=O)CCCC(=O)N(CC)CC | 0.83 | -1.6
Cc1cc(C)c2c(NC(=S)NC(=O)c3ccccc3)n[nH]c2n1 | 0.21 | -2.1
O=C1C(C=NCC2CCCO2)=C(O)c2ccccc21 (stereo not given) | 0.01 | 0.53
COc1ccc(C(c2nnnn2CCc2ccccc2)N2CCN(C3CCCC3)CC2)cc1OC (stereo not given) | 0.02 | 1.7
O=C(CN(C(=O)CCC(=O)Nc1nccs1)c1ccc2c(c1)OCO2)NCc1ccccc1 | 0.11 | -1.1
CC(=O)c1cc2c(cc1NC(=O)CSc1nc3ccc(C)cc3[nH]1)OCO2 | 2.2 | -1
O=C(O)c1cnn(-c2nc(-c3ccc(Cl)cc3)cs2)c1C(F)(F)F | 0.87 | -0.72
CCO[C@@H]1OC(C(=O)NC2CC2)=C[C@H](c2ccc(Br)cc2)[C@H]1CCCO | 0.98 | -0.81
O=C1CCCc2nc(N3CCN(C(=O)c4ccco4)CC3)ncc21 | 1.8 | 0.89
CCCc1nc(SCC(=O)N2CCc3ccccc32)c2c(C)c(C)sc2n1 | 1.4 | -0.19
Cc1cc(NC(=O)CN2CCN(S(=O)(=O)c3ccc4ccccc4c3)CC2)no1 | 0.65 | -0.23
Cc1c(C(=O)N2CC(C)OC(C)C2)sc2nc(-c3ccccc3)cn12 (stereo not given) | 0.09 | 0.03
CCC(=O)Nc1ccc(C(=O)NCc2ccccn2)cc1 | 1.8 | -1.5
OCC1(CCCc2ccccc2)CCN(C2CCSCC2)CC1 | 1.2 | -0.52

From PubChem BioAssay
